# Cruzain inh noDet – qHTS Assay for Promiscuous and Specific Inhibitors of Cruzain (without detergent); Potency, µM, for inactives: max response, negative = inhibition, hits mostly inhibitors; purified cruzain, Z-FR-AMC fluorescence, no detergent; actives 2.3% (n = 200,000); AID 1476, 2009;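 further: plate controls were enzyme without inhibitor for no effect and buffer without enzyme for full effect; nearly all actives have a fitted effect of over 40% in size; top concentration of the series not given in the record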
# Target sequence (P25779 123-467 limits assumed): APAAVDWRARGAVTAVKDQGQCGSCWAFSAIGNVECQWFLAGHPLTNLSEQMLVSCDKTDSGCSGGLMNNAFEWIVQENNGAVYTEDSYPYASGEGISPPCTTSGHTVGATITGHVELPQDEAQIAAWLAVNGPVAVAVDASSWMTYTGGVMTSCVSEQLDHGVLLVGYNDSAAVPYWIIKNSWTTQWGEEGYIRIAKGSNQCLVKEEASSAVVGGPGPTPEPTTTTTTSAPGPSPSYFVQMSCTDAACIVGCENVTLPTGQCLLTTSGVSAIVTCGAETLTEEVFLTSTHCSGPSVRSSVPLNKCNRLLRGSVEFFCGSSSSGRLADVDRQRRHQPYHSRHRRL
#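 Detergent-free condition (0.00005% Triton X-100) in acetate buffer pH 5.5 with DTT. 1.5 nM enzyme and compound were pre-mixed 15 min, then 2 uM Z-FR-AMC substrate added; reaction progress from fluorescence change between first and third reads (60 s).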
# RE007 growth inh – qHTS Assay for Inhibitors of the HIV-1 protein Vpr; actives 0.21% (n = 360,000); S. pombe RE007 Vpr strain, BacTiter-Glo ATP luminescence, 24 h; control for the full effect not named in the record; Potency, µM (series often up to 92.2 µM), without a hit: at the highest dose activity change, negative = less growth; active = well fitted falling curve with a large enough effect; inconclusive = small, poorly fitted or top-dose-only effect; inactive = no such curve, though single readings can be large or run the other way;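 further: on the % scale 0 is the no-effect control and ±100 the full control effect; nearly all actives have a fitted effect of over 50% in size; the assay follows cell death caused by Vpr and the record does not say whether a fall means rescue or toxicity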
#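 Fission yeast strain RE007, carrying one chromosomally integrated HIV-1 vpr copy, was seeded at OD 0.01 in PMG+AL medium with 23 nL pinned compound. After 24 h at 30 °C and 99% humidity, viability was read by BacTiter-Glo luminescence.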
# Marburg entry inh – qHTS for inhibitors of binding or entry into cells for Marburg Virus. Marburg virus pseudotyped entry inhibition, cell reporter; control for the full effect not named in the record; about a third of the inactives were read at about 46 µM. actives 1.8% (n = 300,000). Potency, µM (highest dose often 37.8 µM), without a hit: at the highest dose activity change, negative = inhibition, most hits filed as inhibitors; active = well fitted inhibition curve with a large enough effect; inconclusive = small, poorly fitted or top-dose-only effect, or effect the other way; inactive = flat fitted curve, though single readings scatter; tested in HEK293 cells; about a fifth of its hits are not listed in these tables; further: on the % scale 0 is the no-effect control and ±100 the full control effect; luciferase read-out
# LASV entry inh – qHTS for Inhibitors of binding or entry into cells for Lassa Virus. Lassa virus pseudotype entry inhibition, cell reporter; control for the full effect not named in the record. AID 540256, 2011. Potency, µM (doses to about 37.9 µM), inactives show at the top dose activity change, negative = inhibition, actives largely listed as inhibitors. actives 1.2% (n = 300,000); active means well fitted inhibition curve with a large enough effect; inconclusive means small, poorly fitted or top-dose-only effect, or effect the other way; inactive means flat fitted curve, though single readings scatter; tested in HEK293 cells; further: on the % scale 0 is the no-effect control and ±100 the full control effect; nearly all actives have a fitted effect of over 50% in size; luciferase read-out
# Cruzain inh Det – qHTS Assay for Promiscuous and Specific Inhibitors of Cruzain (with detergent); Cruzipain (Trypanosoma cruzi), P25779; purified cruzain, Z-FR-AMC fluorescence, 0.01% Triton; Potency, µM, for the others: max response, negative = inhibition, actives largely listed as inhibitors; actives 0.43% (n = 200,000); AID 1478, 2009;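 further: plate controls were neutral wells for no effect and buffer without enzyme for full effect; nearly all actives have a fitted effect of over 40% in size; top concentration of the series not given in the record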
#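 Enzyme 1.5 nM, Z-FR-AMC 2 uM, NaOAc 100 mM pH 5.5, DTT 5 mM, Triton X-100 0.01%; 15 min RT compound preincubation; kinetic ex360/em450, 60 s delta.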
# NS1 inh – qHTS Assay for Inhibitors of Influenza NS1 Protein Function | actives 0.4% (n = 270,000) | S. cerevisiae slowed by influenza A NS1, growth recovery by OD600 | Potency, µM (titrated, usually from 46.1 µM), for inactives: at the highest dose activity, positive = more growth; active means well fitted rising curve with a large enough effect; inconclusive means small, poorly fitted or top-dose-only effect; inactive means no such curve, though single readings can be large or run the other way; further: nearly all actives have a fitted effect of over 50% in size
#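 Compounds were scored for reversing the slow growth caused by influenza A NS1 in S. cerevisiae, measured by optical density at 600 nm. Assay medium contained 2% galactose at pH 6.0; NS1-free yeast of the same strain were the positive control.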
# SARS PLP yeast – qHTS of Yeast-based Assay for SARS-CoV PLP; S. cerevisiae expressing SARS-CoV PLpro, growth rescue; control for the full effect not named in the record; Potency, µM (doses to about 32.9 µM), for the others: top-dose activity, positive = growth rescue; actives 0.19% (n = 330,000); AID 485353, 2010; active means well fitted rising curve with a large enough effect; inconclusive means small, poorly fitted or top-dose-only effect; inactive means no such curve, though single readings can be large or run the other way; further: 0% is about no effect; nearly all actives have a fitted effect of over 55% in size; growth read by luminescence after 48 h
# 2A StopGo – High Throughput Screening for Foot and Mouth Disease Virus Antivirals. human cells with a luciferase reporter of 2A StopGo recoding; control for the full effect not named in the record. Potency, µM (highest dose often 57.9 µM), for the others: top-dose signal change, negative = less light. actives 1.2% (n = 410,000). AID 1159524, 2015; active = well fitted falling curve with a large enough effect; inconclusive = small, poorly fitted or top-dose-only effect; inactive = no such curve, though single readings can be large or run the other way; tested in HEK293T cells; further: on the % scale 0 is the no-effect control and ±100 the full control effect; nearly all actives have a fitted effect of over 45% in size; luciferase light after 4 h
# Numbers without * were called inactive; ? = inconclusive; nt = not tested or not shown; [ ] = dose if it differs, or a comment. Unless noted, the call rests on the fitted dose curve; in most records, active means well fitted curve in the direction sought with a large enough effect; inconclusive means small, poorly fitted or top-dose-only effect, or another doubt; inactive means no such curve, though single readings can be large; an effect the other way counts as inactive or inconclusive. Potency means the concentration at half of the fitted maximal effect.
SMILES,Cruzain inh noDet,RE007 growth inh,Marburg entry inh,LASV entry inh,Cruzain inh Det,NS1 inh,SARS PLP yeast,2A StopGo
Cc1ccc(C2(CCNS(=O)(=O)c3ccc(C)cc3)CCOC(C(C)C)C2)cc1 (stereo not given),1%,-9%,6.5µM*,?,-8.8%,-13%,-54%,-3%
Cc1c(Cl)cccc1NC(=O)C(C)n1nnc2sc3c(c2c1=O)CCCC3 (stereo not given),21%,nt,5%[46.1 µM],16%[46.1 µM],0.8%,nt,nt,0%
CCOc1ccc(N=C(NC#N)SCC)cc1,-5%,3%,?,-14%,-2.7%,-17%,-4%,-1%
COc1ccc(-n2cc(CNCCc3cnc[nH]3)c(-c3cccc(F)c3)n2)cc1,nt,-1%,-2%[46.1 µM],?,nt,-71%,0%,-8%
Cc1nn(C(C)C(=O)NCCCN2CCCC2)c(=O)c2nn(-c3ccccc3)c(C)c12 (stereo not given),nt,-9%,nt,nt,nt,-8%,-1%,2%
Cc1nnc(SCc2nc3ccccc3nc2C)s1,-1%,15%,15%,6%,-2.9%,-7%,5%,-17%
CC(C)C1S/C(=N/N=C/c2cccs2)NC1=O (stereo not given),-7%,?,26%,-15%,-2.4%,-6%,6%,6%
CC(C)Cc1nc2oc3c(NCC4CCCO4)ncnc3c2c2c1CCC2 (stereo not given),?,2%,?,-24%,-9.1%,-31%,-2%,?
Cc1cc(=O)n2[nH]c(C(=O)O)nc2n1,-9%,6%,-2%,-14%,0.4%,-4%,5%,-15%
Cc1c(N=Cc2cc3c(cc2Cl)OCO3)c(=O)n(-c2ccccc2)n1C,-5%,2%,-6%,-2%,4.3%,4%,-3%,7%
C=CCOC(=O)C1=C(C)NC(C)=C(C(=O)OCC=C)C1c1cccs1,0%,-11%,?,?,-13%,-31%,-8%,?
Cc1cccc(-c2ncc(S(=O)(=O)C(C)(C)C)c(N)n2)c1,nt,8%,-4%,?,nt,-1%,0%,37%[activator]
CCCOc1ccc(CNC(=O)C2CCN(c3nc4ccccc4nc3C(F)(F)F)CC2)cc1,-7%,nt,nt,3%[46.1 µM],3.8%,nt,nt,-28%
CCOC(=O)/C(=N/Nc1ccc(Cl)cc1)S(=O)(=O)c1ccccc1,-10%,13%,-18%,-7%,-12%,-6%,-7%,nt
Cc1ccc(NC(=O)CSc2nc3ccc(Nc4nc(N5CCOCC5)nc(N5CCOCC5)n4)cc3s2)cc1,nt,-7%,?,18%[46.1 µM],nt,24%,8%,?
O=C(NC1CCCCCCC1)C1c2ccccc2C(=O)N1Cc1cccs1 (stereo not given),7%,13%,-47%,?,-1.2%,1%,1%,-14%
O=C(Cc1ccccc1)Nc1ccccc1Oc1ccccc1,-6%,-3%,-3%,-1%,-3.8%,1%,16%,32%[activator]
CCOC(=O)c1sc(NC(=O)CSc2n[nH]c(C)n2)nc1C,nt,-4%,?,?,nt,-7%,-1%,2%
CCCCCCCN(C(=O)CCl)c1cccc(C)c1,7%,18%,3%,8%,-3.1%,-1%,10%,28µM*
COc1ccc(NS(=O)(=O)c2ccc3c(c2)C(C(C)C)C(=O)N3)cc1 (stereo not given),-5%,nt,nt,-2%[46.1 µM],-3.4%,nt,nt,-2%
O=C(/C=C/c1ccccc1)c1c(O)n(CCc2ccccc2)c(=O)[nH]c1=O,?,2%,?,-20%,-8.8%,8%,-17%,13µM*
CC1CC1C(=O)OCC(=O)NNC(=O)COc1ccc(Br)cc1 (stereo not given),nt,5%,22%,?,nt,nt,0%,4%
Cc1cccc(C(C)C)c1NC(=O)COC(=O)CN1C(=O)C2CC=CCC2C1=O (stereo not given),nt,2%,-7%,24%,nt,nt,-2%,?
CCC1(C)Cc2c(sc3nc4n(c(=O)c23)CCS4)CO1 (stereo not given),-2%,-21%,-12%,-16%,-3.8%,-1%,17%,-19%
CCOc1ccc(C(=O)N2CCN(c3ccccn3)CC2)cc1,nt,-6%,0%,?,nt,1%,-9%,-11%

# Reprinted from the part before: 2 compounds; new compounds follow.
SMILES,Cruzain inh noDet,RE007 growth inh,Marburg entry inh,LASV entry inh,Cruzain inh Det,NS1 inh,SARS PLP yeast,2A StopGo
CCC1(C)Cc2c(sc3nc4n(c(=O)c23)CCS4)CO1 (stereo not given),-2%,-21%,-12%,-16%,-3.8%,-1%,17%,-19%
CCOc1ccc(C(=O)N2CCN(c3ccccn3)CC2)cc1,nt,-6%,0%,?,nt,1%,-9%,-11%
Cc1cc(C)c2c(=O)n(CC(=O)N3CCC(N4CCCCC4)CC3)sc2n1,-6%,?,nt,nt,-3.2%,4%,-9%,-8%
CCOc1ccc(C(C)NC(=O)Cc2ccccc2)cc1OCC (stereo not given),6%,-3%,-3%,-4%,-2.3%,-6%,10%,-13%
CCCN(CCC)C(=O)c1c[nH]c2ccc(S(=O)(=O)Nc3cc(C)cc(C)c3)cc2c1=O,16%,nt,-1%[46.1 µM],15%[46.1 µM],-9.9%,nt,nt,12%
CCSC1=C(C#N)C(c2ccc3c(c2)OCO3)C2=C(CCCC2=O)N1 (stereo not given),2%,0%,-8%,-8%,-4.6%,-10%,12%,-8%
Cc1n[nH]c(=O)c2c(NC(=O)CSc3ccccc3Cl)oc(C)c12,nt,48%,?,5%,nt,nt,0%,-20%
COCCNc1nnc(SCC(=O)NNC(=O)c2ccc([N+](=O)[O-])cc2)s1,nt,-16%,6%[46.1 µM],13%,nt,nt,-5%,-5%
CC(Sc1nc2ccccc2[nH]1)C(=O)O (stereo not given),6%,3%,?,0%,3.5%,3%,3%,3%
COC(=O)CN1C(=O)S/C(=C/c2cc(C)n(C)c2C)C1=O,3%,18%,?,1%,2.9%,4%,4%,63%[activator]
O=C(CN1CC(c2ccccc2)CC1=O)OCc1ccccc1F (stereo not given),-2%,4%,?,17%,-1.1%,10%,12%,58%[activator]
O=[N+]([O-])c1cc(/C=N\Nc2ccccn2)ccc1Cl,nt,0%,nt,nt,nt,-13%,0%,0%
O=C1C2C3C=CC(C4CC34)C2C(=O)N1/N=C/c1ccc(-c2ccc(F)cc2[N+](=O)[O-])o1 (stereo not given),?,1%,-26%,-6%,-6.4%,-2%,16%,0%
Cc1ccc2nc(-c3ccncc3)cc(C(=O)Nc3ccc(OC(F)F)cc3)c2c1,nt,19%,?,-27%,nt,9%,-1%,?
COCCCNC(=O)CSc1nc2c(sc3ccccc32)c(=O)n1CCCC(=O)NCC1CCCO1 (stereo not given),nt,-3%,9%[46.1 µM],16%,nt,nt,-1%,15%
CSc1nc2ccc3nc(NC(=O)c4ccc(Cl)s4)sc3c2s1,?,5%,nt,nt,0.2%,1%,-6%,-5%
CCOC(=O)C1CCCN(CC(=O)c2ccc(F)cc2)C1 (stereo not given),nt,-6%,17%,?,nt,-8%,1%,17%
CCCOC(=O)c1ccc(NC(=O)C2C3CCC(C3)C2C(=O)O)cc1 (stereo not given),-7%,1%,?,-7%,-2.2%,-31%,0%,30%[activator]
Cc1cc(C(=O)NC2CCCC2)c2ccccc2n1,nt,-25%,1%[46.1 µM],17%[46.1 µM],nt,3%,2%,-6%
c1coc(CN2CNc3nc4ccccc4n3C2)c1,nt,-14%,-14%,5%,nt,0%,0%,0%
CCOC(=O)C1=C(C)N(CC)C(=S)NC1c1ccccc1OC(F)F (stereo not given),nt,28%,8%[46.1 µM],?,nt,8%,2%,-8%
COc1ccc(N(CC(=O)N/N=C/c2cccnc2)S(=O)(=O)c2ccccc2)c(OC)c1,nt,1%,-21%,14%,nt,-8%,0%,-4%
Cc1ccc(NC(=O)CSc2nnc3scc(-c4ccc(Cl)cc4)n23)cc1,4%,nt,13%[46.1 µM],-14%[46.1 µM],-2.6%,nt,nt,-15%
CSc1ccc(CCNC(=O)c2ccc(-c3nc(COc4ccc(C)cc4)c(C)o3)cc2)cc1,3%,nt,nt,?,-1.1%,nt,nt,-23%
O=C(NCC(c1ccc2c(c1)OCO2)N1CCN(c2ccccc2)CC1)c1ccccc1 (stereo not given),-14%,nt,nt,?,-1.9%,nt,nt,-23%
Cc1sc2nc(SCC(=O)Nc3ccc(S(N)(=O)=O)cc3)[nH]c(=O)c2c1C,nt,0%,3%,19%,nt,-8%,-2%,-21%
O=C(NCCc1ccccc1)C1CCC(CNS(=O)(=O)c2ccc(F)cc2)CC1 (stereo not given),nt,6%,nt,nt,nt,-3%,4%,11%
SMILES,Cruzain inh noDet,RE007 growth inh,Marburg entry inh,LASV entry inh,Cruzain inh Det,NS1 inh,SARS PLP yeast,2A StopGo
O=C(O)CCC(=O)Nc1ccc(S(=O)(=O)N2CCCC2)cc1,9%,0%,15%,4%,5.2%,3%,6%,1%
CCOc1ccc(CNCc2ccc(C(=O)O)cc2)cc1OC,nt,15%,15%[14.2 µM],-2%,nt,7%,1%,0%
CN(C(=O)COC(=O)c1ccccc1NC(=O)c1ccco1)C1CCS(=O)(=O)C1 (stereo not given),nt,4%,5%[46.1 µM],-3%,nt,nt,-1%,7%
CC1(C)CC(=O)C(C=NCCC2=CCCCC2)=C(O)C1,0%,3%,2%,-19%,3.7%,0%,2%,nt
O=C(NCC(c1ccco1)N1CCCCC1)c1ccc(S(=O)(=O)Nc2ccccc2)cc1 (stereo not given),nt,5%,?,?,nt,nt,-2%,-5%
Cc1ccc(NC(=O)NCCOCCn2c(=O)oc3ccccc32)c(C)c1,-4%,nt,-8%[46.1 µM],24%[46.1 µM],3.1%,nt,nt,-8%
O=C(CSCc1ccc(Cl)cc1)NN=C1CCCC1,6%,-23%,-1%,10%,0.2%,10%,0%,-2%
CCOc1ccc(-c2nc(CSCC(=O)NCCc3ccccc3)c(C)o2)cc1,?,nt,nt,1%[46.1 µM],-4.7%,nt,nt,0%
O=C(CSc1ncccn1)Nc1ncc(C(F)(F)F)cc1Cl,nt,5%,nt,nt,nt,0%,0%,6%

# Source: PubChem BioAssay
